# PV pol inh – poliovirus RNA polymerase inhibition. poliovirus polymerase elongation, fluorescence polarization; stronger effect = lower value. % elongation, % (compound at 16.7 µg/mL). AID 588519. 150,000 tested, 0.66% active; in the data active means % elongation below about 90%; further: some results filed as inactive read as strong as hits
# Target sequence (P03300 1749-2209 limits assumed): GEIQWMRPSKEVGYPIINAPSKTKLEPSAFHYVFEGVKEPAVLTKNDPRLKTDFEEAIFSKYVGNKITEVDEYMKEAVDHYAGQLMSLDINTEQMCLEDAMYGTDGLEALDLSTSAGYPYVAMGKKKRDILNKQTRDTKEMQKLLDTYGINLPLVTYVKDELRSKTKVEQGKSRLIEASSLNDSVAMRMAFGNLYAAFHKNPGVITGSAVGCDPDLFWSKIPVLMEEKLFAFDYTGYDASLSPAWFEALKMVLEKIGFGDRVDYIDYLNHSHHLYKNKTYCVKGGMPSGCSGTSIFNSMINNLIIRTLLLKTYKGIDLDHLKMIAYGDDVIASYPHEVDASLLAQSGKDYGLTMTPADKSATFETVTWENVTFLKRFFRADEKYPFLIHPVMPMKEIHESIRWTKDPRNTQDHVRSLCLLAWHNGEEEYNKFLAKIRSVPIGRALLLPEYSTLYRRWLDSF
# PV pol inh intensity – second read-out of PV pol inh, no call of its own (marks repeat the call); % elongation; measured here: total intensity read-out; formula for this scale not given here;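 total fluorescence in place of polarization; lower means less elongation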
# * marks the source's active call; other numbers are inactive results. The list is partial. The share of hits here may be higher or lower than overall.
SMILES,PV pol inh,PV pol inh intensity
CCCCC1CCC(C(=O)N2CC(=O)Nc3ccc(C)cc3C2c2ccc(F)cc2)CC1 (centres undefined),102,97
COc1ccc(CNC(=O)CSc2ncc(S(=O)(=O)c3ccc(C)c(Cl)c3)c(=O)[nH]2)cc1,101,104
COc1ccc(CCNC(=O)c2cnc3sc(N4CCOCC4)nn3c2=O)cc1OC,104,103
CCCCc1ccc(C(=O)c2c(N)c(C(=O)Nc3cccc(OC)c3)c3ccccn23)cc1,106,105
COC(=O)c1ccccc1NC(=O)C1=C(C)C(=O)OC12CCCCCC2,106,111
COc1ccc(C2C(C(=O)Nc3ccccc3OC)=C(C)Nc3c(C(=O)Nc4ccccc4)cnn32)c(OC)c1 (centres undefined),110,95
CCC(C(=O)Nc1cccc(-c2nc3cccnc3s2)c1C)c1ccccc1 (centres undefined),115,115
COc1ccc(C)cc1NC(=O)CCc1c(C)nn(-c2ccc(N3CCOCC3)nn2)c1C,102,99
COc1cccc2cc(-c3nnc(-c4ccc(Cl)cc4)o3)c(=O)oc12,100,104
Cn1c(CN2CCCCC2)nc2cc(NC(=O)c3cccc(Br)c3)ccc21,112,112
CCOCCCN1C(=O)c2ccccc2CC1(C)C(=O)NC1CCCCC1 (centres undefined),113,114
Cc1coc2c1c(C)cc1oc(=O)c(CC(=O)NCCc3ccc(Cl)cc3)c(C)c12,115,114
CN(C1CCCCC1)S(=O)(=O)c1ccc2c(c1)c(=O)c(C(=O)NCc1ccc(Cl)cc1)cn2C,106,111
Cc1ccc(NC(=O)Cn2c(=O)n(CCc3ccccc3)c(=O)c3sc4ccccc4c32)cc1C,99,102
O=C(CSc1n[nH]c(-c2ccc(F)cc2)n1)NCc1ccccc1Cl,111,109
COc1cc(C2c3c(oc4ccc(F)cc4c3=O)C(=O)N2c2nc(C)c(C)s2)cc(OC)c1OC (centres undefined),101,97
COc1ccc(-c2nc3sc(CCNC(=O)C(C)(C)C)c(C)n3n2)cc1,108,112
CCCOc1ccc(NC(=O)CC2C(=O)N(c3ccccc3)C(=O)N2Cc2ccco2)cc1 (centres undefined),112,96
CN(C)c1ccc(CNC(=O)CCn2c(=O)c3cccn3c3ccc(F)cc32)cc1,109,114
Cn1cc(C(=O)O)c(=O)c2cc(S(=O)(=O)N3CCOCC3)ccc21,99,103
Cc1ccccc1CNC(=O)C1CCN(S(=O)(=O)Cc2ccccc2)CC1,110,114
Cc1ccc(S(N)(=O)=O)cc1NC(=O)c1c(-c2c(Cl)cccc2Cl)noc1C,104,105
Cc1ccc(N2CC(C(=O)NCCS(=O)(=O)N3CCN(c4ccccc4)CC3)CC2=O)cc1 (centres undefined),106,110
Cc1ccccc1NC(=O)CSc1nc2ccc(NC(=O)CCc3ccccc3)cc2s1,107,114
COc1ccc(C)cc1NC(=O)N1CCN(c2cc(-c3noc(C)n3)ccc2C)CC1,100,108
COc1ccc(-c2ccc(NS(=O)(=O)c3ccc(F)c(C(F)(F)F)c3)cc2)nn1,98,93
Cc1cc2n(n1)C(c1cc(C(C)(C)C)c(O)cc1O)Nc1ccccc1-2 (centres undefined),100,99
Cc1ccccc1CNS(=O)(=O)c1csc(C(N)=O)c1,114,103
COc1cc(OC)cc(C(=O)Nc2nc(-c3nnn(-c4ccc(C)cc4)c3C)ns2)c1,96,97
COc1cc(OC)c(NC(=O)Cn2nc(C)n3cccc3c2=O)cc1Cl,113,113
COc1cccc(NC(=O)c2ccc(-c3nc(COc4ccccc4)c(C)o3)cc2)c1,102,108
O=C(CN1C(=O)COc2ccc(S(=O)(=O)N3CCOCC3)cc21)Nc1ccc(F)c(Cl)c1,109,105
CCN(CC)C(=O)Cn1c(=O)cc(C)c2c(C)nn(C)c21,104,94
O=C(Nc1cccs1)Nc1cc(C(F)(F)F)ccc1Cl,115,115
Cc1oc2ccc(O)c(CN3CCCCC3C)c2c1C(=O)Nc1ccccc1 (centres undefined),106,111
COc1ccc(CNC(=O)Cc2c(C)c3c(cc(C)c4c(C)c(C)oc43)oc2=O)cc1,115,110
Cc1cccc(NS(=O)(=O)c2ccc(NC(=O)N3CCCC3)cc2)c1,102,104
Cc1ccccc1OC(=O)CSc1nnc(-c2ccc(F)cc2)o1,112,111
Cc1ccc(NC(=O)c2cc(C)nn2-c2ccccc2)cc1,107,105
COc1ccc(-c2nnc(C3CCN(S(=O)(=O)c4cccc(Cl)c4)CC3)o2)cc1,106,110
COc1cc2c(cc1OC)C(COc1ccccc1OC)N(C(=O)c1ccc(S(=O)(=O)N3CCCC3)cc1)CC2 (centres undefined),111,112
CC(C)(C)OC(=O)N1CCC(c2c(C(=O)Nc3cccc(C(F)(F)F)c3)cnn2-c2ccc(F)cc2F)CC1,103,104
CCOc1ccc(OCC)c(NC(=O)c2cnn(-c3ccc(F)cc3)c2C2CCN(C(=O)OC(C)(C)C)CC2)c1,100,106
CC1CCN(c2nc3ccccc3nc2C(F)(F)F)CC1,110,117
CCOC(=O)c1ccccc1NC(=O)CSc1nc2cn(CC)nc2c(=O)n1Cc1ccc(Cl)cc1,105,109
COC(=O)c1ccccc1NC(=O)c1cnn(-c2ccc(F)cc2)c1-n1cccc1,108,109
CCOc1cccc(C(=O)Nc2cc(C)c(O)c(-c3nc4ncccc4o3)c2)c1,102,105
CCOC(=O)c1nnn(CC(=O)Nc2cc(C)cc(C)c2)c1C(=O)OCC,108,111
Cc1ccc(NC(=O)c2ncoc2-c2ccco2)cc1Cl,110,114
CC(CNC(=O)C1CCN(C(=O)N2CCOc3ccc(Cl)cc32)CC1)c1ccccc1 (centres undefined),109,111
CCCS(=O)(=O)c1ncc(Cl)c(C(=O)Nc2scc(-c3ccccc3)c2C(=O)OCC)n1,123,122
CCc1ccc(NC(=O)CN2C(=O)C(c3ccc(Cl)cc3)=NC23CCCCC3)cc1,108,112
CCOCCCN(C(=O)Nc1ccc(Cl)cc1)C1CCN(C(C)=O)CC1,110,103
Cc1ccc(C)c(S(=O)(=O)c2nnn3c2nc(NC2CCCC2)c2sccc23)c1,107,113
CCCS(=O)(=O)N1CC(=O)N(c2cc(C)cc(C)c2)C(C)(C(=O)NC2CCCCCC2)C1 (centres undefined),104,108
Cc1ccc(NC(=O)C2CCCN(c3nc4ccccc4s3)C2)c(C)c1 (centres undefined),109,110
O=C(COc1ccc2oc3c(c2c1)CCCC3)Nc1ccc(Br)cc1,103,104
O=C(Nc1ccccc1C(=O)OCc1cc(=O)n2nc(C3CC3)sc2n1)c1cccc(Cl)c1,104,108
Cc1ccc(NC(=O)C(Cc2c[nH]c3ccccc23)NC(=O)OCC(C)C)cc1 (centres undefined),108,112
COc1ccccc1/C=C/c1nc(C#N)c(NCCc2ccccc2)o1,106,109

# Two of the compounds above, with each value named:
Cc1ccc(NC(=O)C(Cc2c[nH]c3ccccc23)NC(=O)OCC(C)C)cc1 (centres undefined)
  PV pol inh: 108 | PV pol inh intensity: 112

CC(CNC(=O)C1CCN(C(=O)N2CCOc3ccc(Cl)cc32)CC1)c1ccccc1 (centres undefined)
  PV pol inh: 109 | PV pol inh intensity: 111

# (list continues)
SMILES,PV pol inh,PV pol inh intensity
COc1ccccc1CNc1nc(-c2ccco2)nn1C(=O)c1cc(OC)c(OC)c(OC)c1,106,96
COc1ccccc1-c1cc(C(=O)Nc2cc(OC)c(OC)c(OC)c2)no1,107,111
Cc1nn(C)c2c1c(-c1ccccc1)cc(=O)n2C(C)C(=O)NCCc1ccc(Cl)cc1 (centres undefined),103,113
COc1ccc(-c2cccc(NS(=O)(=O)c3ccc(C)s3)c2)nn1,109,112
COc1cc(NC(=O)CSc2nc3nc(C)c(Cc4ccc(C)cc4)c(C)n3n2)cc(OC)c1,110,96
CC(=O)Nc1ccc(NC(=O)C(NC(=O)C2CCC(C)CC2)C(C)C)cc1 (centres undefined),104,106
CCOCCCn1c(=N)c(C(=O)NCc2ccccc2)cc2c(=O)n3ccccc3nc21,112,116
Cc1ccc(NC(=O)CCn2nc(C)c(S(=O)(=O)N3CCCCC3)c2C)cc1Cl,112,108
O=S(=O)(c1ccc2ccccc2c1)n1nc(-c2ccco2)nc1NCc1ccc(F)cc1,100,96
CCc1ccc(NC(=O)c2sc3nc4c(cc3c2N)CN(CC)CC4)cc1,103,107
CCOC(=O)CSc1nc2ccc(NC(=O)c3ccccc3F)cc2s1,110,117
Cc1c(NC(=O)c2ccccc2)cc(C(C)C)c(O)c1S(=O)(=O)c1ccc(Cl)cc1,102,104
COc1ccccc1N1CCN(CC(O)COc2cc(C)cc(C)c2)CC1 (centres undefined),97,99
CC(=O)Nc1c(C(=O)Nc2ccccc2F)oc2ccccc12,103,99
CC(C)CCN(Cc1ccco1)C(=O)c1cc2c(Cl)nc3ccccc3c2s1,110,111
Cc1c(Cl)cccc1NC(=O)C(CCS(C)(=O)=O)N1Cc2ccccc2C1=O (centres undefined),110,113
COc1ccc(CNS(=O)(=O)c2cc3c(cc2C)N(C)CCO3)cc1,104,107
COc1cccc(-n2c(SCC(=O)Nc3cccc(Cl)c3)nc3c(oc4ccccc43)c2=O)c1,103,111
CCc1ccc(S(=O)(=O)NCCc2cn3ccsc3n2)cc1,108,113
Cc1cccc(N2CCN(C(=O)Cn3ncc4c5ccccc5n(C)c4c3=O)CC2)c1C,110,112

# Given with each value named: part of the list above.
structure: CCc1ccc(NC(=O)c2sc3nc4c(cc3c2N)CN(CC)CC4)cc1
  PV pol inh: 103	PV pol inh intensity: 107

structure: CCOC(=O)CSc1nc2ccc(NC(=O)c3ccccc3F)cc2s1
  PV pol inh: 110	PV pol inh intensity: 117

# More records.
SMILES,PV pol inh,PV pol inh intensity
Cc1ccc(Cn2c(CN3CCC(C(=O)NCc4ccccc4C)CC3)cc3ccccc32)cc1,101,102
CCc1cccc(C)c1NC(=O)CCCn1nc(C)c2sc3ccccc3c2c1=O,110,104
Cc1cc2c(cc1S(=O)(=O)Nc1ccc(C(C)C)cc1)OCCN2C,111,109
CCc1ccc(NC(=O)C2CCN(c3nc(-c4ccc(OC)cc4)no3)CC2)cc1,109,111
O=C(Nc1ccc(Br)cc1C(=O)c1ccccc1Cl)c1ccc(Br)cc1,108,110
COc1ccc(-c2nc3sc(CCNC(=O)c4cccc(C(F)(F)F)c4)c(C)n3n2)cc1,105,107
COc1ccc2c(CNCCc3ccc(SC)cc3)c(C(=O)O)n(Cc3ccc(F)cc3)c2c1,118,113
CCOC(=O)c1ccc(NC(=O)Cn2cc(C(=O)c3cccs3)c3ccccc32)cc1,103,104
CCn1c(=O)n(-c2ccc3c(c2)OCO3)c2nc(-c3ccc(C(C)C)cc3)nc(C(N)=O)c21,102,101
COc1ccc(-c2noc(CSc3nnc(Cc4ccccc4)n3-c3ccc(F)cc3)n2)cc1,113,111
COc1ccc(OC)c(CCNC(=O)c2ccc3c(c2)c(C)c(C)n3Cc2ccccc2)c1,112,112
COc1ccc(C2NC(=O)N(C)C3=C2C(=O)N(c2ccc(C)cc2)C3)cc1 (centres undefined),104,107
COc1ccc(CNC(=O)c2ccc3c(c2)CCN3S(=O)(=O)c2ccc(C)cc2)cc1,107,107
Cc1ccc(C(=O)c2cn(CC(=O)NC3CCCCC3)c3nc(C)ccc3c2=O)cc1,105,110
COc1ccc(Cl)cc1NC(=O)CSC1=Nc2ccccc2C2=NC(CC(=O)NC3CCCCC3)C(=O)N12 (centres undefined),114,115
CCOCCCNC(=O)CN1C(=O)COc2ccc(S(=O)(=O)N3CCCC3)cc21,101,103
CCC(=O)N1CCc2cc(S(=O)(=O)NCCC(=O)Nc3ccc(C)cc3)ccc21,105,109
COc1ccc(OC)c2sc(N(Cc3cccnc3)C(=O)c3ccc(C(C)=O)cc3)nc12,103,97
CCC(CC)C(=O)Nc1c(C(=O)N2CCN(c3ccccc3)CC2)oc2ccccc12,105,99
CCCCN(C)C(=O)c1ccc2c(c1)N(Cc1cccc(Cl)c1)C(=O)c1ccccc1S2=O (centres undefined),105,99

# 7 compounds out of the list, sorted by length of the SMILES, low to high:
SMILES,PV pol inh,PV pol inh intensity
Cc1cc2c(cc1S(=O)(=O)Nc1ccc(C(C)C)cc1)OCCN2C,111,109
CCOCCCNC(=O)CN1C(=O)COc2ccc(S(=O)(=O)N3CCCC3)cc21,101,103
CCc1ccc(NC(=O)C2CCN(c3nc(-c4ccc(OC)cc4)no3)CC2)cc1,109,111
Cc1ccc(Cn2c(CN3CCC(C(=O)NCc4ccccc4C)CC3)cc3ccccc32)cc1,101,102
COc1ccc(-c2nc3sc(CCNC(=O)c4cccc(C(F)(F)F)c4)c(C)n3n2)cc1,105,107
CCCCN(C)C(=O)c1ccc2c(c1)N(Cc1cccc(Cl)c1)C(=O)c1ccccc1S2=O (centres undefined),105,99
COc1ccc(Cl)cc1NC(=O)CSC1=Nc2ccccc2C2=NC(CC(=O)NC3CCCCC3)C(=O)N12 (centres undefined),114,115

# Other compounds.
SMILES,PV pol inh,PV pol inh intensity
COc1ccc(CCN2C(=O)N(c3ccc(F)cc3)C(=O)C2CC(=O)Nc2ccc(OC)cc2)cc1 (centres undefined),103,106
CCN1CCN(Cc2c(O)ccc3oc(C)c(C(=O)Nc4cccc(C(F)(F)F)c4)c23)CC1,104,89
COc1ccccc1Cc1nc2ccccc2nc1SCC(=O)Nc1ccc2c(c1)OCO2,108,113
COc1ccc(CC(=O)Nc2ccc(-c3nc4ccccc4s3)cc2Cl)cc1,100,103
CC(=O)N1CCCc2cc(S(=O)(=O)N(C)CC(=O)Nc3ccc(Cl)cc3C)ccc21,103,98
CCN1C(=O)C(Cc2nc3ccccc3c(=O)n2-c2ccccc2)c2cc(Br)ccc21 (centres undefined),105,106
CCc1ccc(OCC(=O)Nc2c(C(=O)c3ccccc3)oc3ccccc23)cc1,111,114
Cc1ccc(-c2cc3nccc(-c4cc([N+](=O)[O-])ccc4O)n3n2)cc1,106,104
Cc1cc(C)cc(C(=O)Nc2ccc(-c3cn4cccnc4n3)cc2)c1,105,109
CCSc1nnc2c(n1)OC(CC)N(C(C)=O)c1ccccc1-2 (centres undefined),104,103

# Reprinted at random: three compounds from above
SMILES,PV pol inh,PV pol inh intensity
Cc1cccc(NS(=O)(=O)c2ccc(NC(=O)N3CCCC3)cc2)c1,102,104
CCOCCCN1C(=O)c2ccccc2CC1(C)C(=O)NC1CCCCC1 (centres undefined),113,114
CCOc1cccc(C(=O)Nc2cc(C)c(O)c(-c3nc4ncccc4o3)c2)c1,102,105
